HSD17B inh – qHTS Assay for Inhibitors of HSD17B4, hydroxysteroid (17-beta) dehydrogenase 4. recombinant HSD17B10, NADH fluorescence kinetic; many of its hits are not listed in these tables. actives 7.6% (n = 75,000). 3-hydroxyacyl-CoA dehydrogenase type-2 (Homo sapiens), Q99714. Potency, µM (highest dose often 57.1 µM), for the others: top-dose activity change, negative = inhibition, hits mostly inhibitors. AID 893, 2007; active = well fitted inhibition curve with a large enough effect; inconclusive = small, poorly fitted or top-dose-only effect; inactive = no such curve, though single readings can be large or run the other way;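 note: the protocol describes HADH2 (HSD17B10) and not the HSD17B4 of the title; nearly all actives have a fitted effect of over 70% in size; most hits overshoot -100% by far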
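His-tagged E. coli-expressed HADH2 at 20 nM in 100 mM Tris-HCl pH 9.0 with 0.01 % Tween-20, preincubated 15 min with compound at room temperature. Reaction with 1 mM NAD+ and 90 uM beta-hydroxybutyryl coenzyme A; NADH fluorescence (360/450 nm) read kinetically over 4 min, last minus first point.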
An asterisk follows results filed as active; ? = inconclusive; [ ] = another dose, or the depositor's remark. % is set by controls: 0 for no effect and ±100 for the full control effect; potency is the fitted concentration of half-maximal effect. This is a subset (hit frequency here may not be typical).

Sample of the layout, 5 compounds:
| Structure | HSD17B inh |
| --- | --- |
| Cn1ncc(C#N)c1/N=C/N1CCOCC1 | 17% |
| CCOC(=O)N1CCN(C(=O)CSc2nnc(COc3ccc(Cl)cc3)o2)CC1 | 2% |
| CCOC(=O)c1ccccc1NC(=O)COc1ccccc1 | -10% |
| CC1(C)Cc2nc3oc4c(N(CCO)Cc5ccccc5)ncnc4c3cc2CO1 | 32µM* |
| CCOc1cc(S(=O)(=O)NC2CC(C)(C)NC(C)(C)C2)ccc1F | -3% |

Results (from the top)
| Structure | HSD17B inh |
| --- | --- |
| Cn1ncc(C#N)c1/N=C/N1CCOCC1 | 17% |
| CCOC(=O)N1CCN(C(=O)CSc2nnc(COc3ccc(Cl)cc3)o2)CC1 | 2% |
| CCOC(=O)c1ccccc1NC(=O)COc1ccccc1 | -10% |
| CC1(C)Cc2nc3oc4c(N(CCO)Cc5ccccc5)ncnc4c3cc2CO1 | 32µM* |
| CCOc1cc(S(=O)(=O)NC2CC(C)(C)NC(C)(C)C2)ccc1F | -3% |
| CN1CCN(C(=O)c2ccccc2-c2nc(-c3ccc(Cl)cc3)no2)CC1 | 4% |
| CC1(C)CC(=O)CC(C)(C)N1OC(=O)c1ccncc1 | 2% |
| CC(C)C(=O)N(Cc1cc(=O)[nH]c2ccccc12)c1ccccc1 | 1% |
| Cc1ccc2c(Cl)cc(Cl)c(O)c2n1 | 1% |
| CC(C)C(C(=O)NC1CCCCC1)N(CC1CCCO1)C(=O)CNS(=O)(=O)c1ccc(F)cc1 (stereo not drawn) | 2% |
| CC(C)CN1C(=O)c2ccc(C(=O)Nc3ccncc3)cc2C1=O | 2% |
| Cc1ccccc1OCC(=O)N(Cc1cccs1)C1CCS(=O)(=O)C1 (stereo not drawn) | 4% |
| CCOc1cc(C(=O)Nc2ccc(N3CCN(S(C)(=O)=O)CC3)cc2)cc(OCC)c1OCC | 4% |
| COc1cccc(C(=O)CSc2nnc(-c3cccs3)o2)c1 | 13% |
| O=C1COC(c2ccccc2O)=NN1CCCN1CCCC1 | 3%[11.4 µM] |
| C=CCOc1nc(N2CCCC2)nc(N2CCCC2)n1 | 10% |
| CC1(C)CC(=O)C2=C(C1)OC(N)=C(C#N)C2CCc1ccccc1 (stereo not drawn) | 2% |
| COc1ccc(CCNC(=O)NC2CCCCC2)cc1OC | -13% |
| CC(=O)c1c(C)[nH]c(C(=O)OCC(=O)NCCc2ccc(F)cc2)c1C | 5% |
| CCOC(=O)C1=C(Nc2cccc(Cl)c2)OCC1=O | 8% |
| CCCc1[nH]nc2c1C(Cc1ccccc1)C(C#N)=C(N)O2 (stereo not drawn) | 0% |
| CC(C)NC(=O)CSc1nnc(-c2ccc(C(C)(C)C)cc2)n1C | 14% |
| COc1ccc(N2CCN(S(=O)(=O)c3ccc(OC)cc3)CC2)cc1 | -9% |
| O=C(O)c1[nH]c2ccc(Cl)cc2c1CC(=O)N1CCN(c2ccccc2)CC1 | -15% |
| CCn1c(SCC(=O)O)nnc1-c1ccccc1 | 9% |
| CCCn1c2c(c(O)c(C(=O)Nc3ccccn3)c1=O)CCCC2 | 3% |
| CC(=O)N(Cc1cc(=O)[nH]c2ccccc12)c1ccc(C)cc1 | -1% |
| O=C(O)c1ccccc1C(=O)NCc1ccccc1 | 8% |
| O=C(O)c1cccc(OCCO)c1 | 6%[11.4 µM] |
| CC(C)CCOc1cccc(OCC(=O)NC2CCS(=O)(=O)C2)c1 (stereo not drawn) | -9% |
| CC(C)Cc1cc(C(=O)Nc2cc(Br)ccc2O)no1 | -2% |
| CC(=O)c1c(C)[nH]c(C(=O)N2CCc3ccccc3C2)c1C | -2% |
| O=C(Nc1ccc2c(c1)oc1ccccc12)c1ccc2c(c1)OCO2 | ? |
| CCN(CC)S(=O)(=O)c1ccc2c(c1)c(=O)c(C(=O)N1CCc3ccccc3C1)cn2C | 2% |
| CCCC[C@H](CC)CN1CN(C[C@@H](CC)CCCC)CC(C)(N)C1 | 0%[25.6 µM] |
| COc1cc(-c2nnc3sc(-c4cccs4)nn23)cc(OC)c1OC | -24% |
| COc1ccc(C(=O)CSc2nnc(CNC(=O)c3ccc(OC)cc3)n2C)cc1 | 6% |
| O=C(Nc1cccc(F)c1)C1CC(=O)N(c2ccc(Cl)cc2)C1 (stereo not drawn) | -3% |
| COc1cc2c(C=O)c3c4c(cc(OC)c(OC)c4c2cc1OC)CCN3C | -10% |
| Cc1cc(C)c(C)c(S(=O)(=O)NCc2ccco2)c1C | -9% |
| CCOC(=O)c1c(C)[nH]c(C(=O)CSc2nc3ccccc3o2)c1C | 17% |
| O=C(NCc1cccnc1)c1ccc(COc2ccc3c(c2)CCC3)o1 | -4% |
| Nc1nc(NCc2cccs2)nn1-c1ccccc1 | 5% |
| COc1ccc(C(=O)c2coc3ccc(O)c(CN4CCCC4)c23)cc1 | -5% |
| COc1cc(NS(=O)(=O)c2ccc(NC(=O)COc3ccc(C)cc3)cc2)nc(OC)n1 | -16% |
| COC(=O)C1=C(C)NC(=O)CC1c1cccc(OC)c1OC (stereo not drawn) | 7% |
| CN(CC(=O)NCc1cccs1)S(=O)(=O)c1cccc2nsnc12 | 1% |
| COc1ccc(CNC(=O)Cn2nc(C(F)(F)F)c3c2CCC3)cc1 | 0% |
| CCSc1ncnc2c(C#N)c3n(c12)CCCCC3 | -7% |
| COc1cc(NC(=O)c2ccc3c(c2)OCO3)ccc1NC(=O)C(C)C | -2% |
| Cc1ccc(C)c([C@@H]2NC(=O)c3ccccc3N2)c1 | 4µM* |
| O=C(NC1CC2CCCC(C1)N2Cc1ccco1)NC12CC3CC(CC(C3)C1)C2 (stereo not drawn) | 2% |
| Nc1c(C(=O)NCc2ccccc2)nnn1Cc1cccc(Cl)c1 | 9% |
| O=c1c2ccccc2oc2nc3n(c(=O)c12)CCCS3 | 25µM* |
| CCOC(=O)C(Oc1ccc(=O)n(-c2ccccc2)n1)C(C)=O (stereo not drawn) | 1% |
| COc1ccc(Cl)cc1S(=O)(=O)N1CCN(Cc2ccc3c(c2)OCO3)CC1 | 3% |
| CCCCC1CCC(c2nc(-c3cccnc3)no2)CC1 (stereo not drawn) | -1% |
| C=C1CSc2nc(=O)c3c4c(sc3n21)CCC4 | 6% |
| Cc1ccc(Nc2nc(C(=O)NCc3ccco3)cs2)cc1 | -20% |
| Cn1c(SCc2nnc3n2CCCCC3)nc2ccccc21 | 3% |

Continued:
| Structure | HSD17B inh |
| --- | --- |
| CC(C)CC(NC(=O)OC(C)(C)C)C(=O)NC(C(=O)NC(C)C(N)=O)C(C)C (stereo not drawn) | 6% |
| c1ccc2cc(C3=NCCN3)ncc2c1 | -10% |
| O=S(=O)(NC1CCCC1)c1ccccc1Cl | -3% |
| CCOc1ccc(-c2nc(C#N)c(N3CCOCC3)o2)cc1 | 25µM* |
| CCN(CC)C(=O)c1sc(N)c(C#N)c1C | -2% |
| CC(=O)c1ccc(NC(=O)CCNS(=O)(=O)c2cccc3nonc23)cc1 | -9% |
| C=CCOC(=O)C1=C(C)NC(=O)NC1/C=C/c1ccccc1 (stereo not drawn) | 7% |
| CCOC(=O)c1nnn(-c2nonc2N)c1CN1CCc2ccccc2C1 | 4% |
| CC1CCN(C(=O)c2ccc(NS(C)(=O)=O)cc2)CC1 | 2% |
| CC(C)(C)C1CCc2[nH]c3ccccc3c(=O)c2C1 (stereo not drawn) | ? |
| Cc1cc(C(=O)Nc2cccnc2)cs1 | 5% |
| COC(=O)c1ccccc1S(=O)(=O)N(Cc1ccco1)Cc1cc2cc(OC)ccc2[nH]c1=O | ? |
| CC1CCCC(NC(=O)c2ccc3c(=O)n(CC4CCCO4)c(=O)[nH]c3c2)C1C (stereo not drawn) | 25µM* |
| O=C(c1cc2ccccn2n1)N1CCN(c2cccc(C(F)(F)F)c2)CC1 | 48%[activator] |
| CCOc1ccc(NC(=O)CN2CCN(CC(=O)Nc3ccc(C(=O)OC)cc3)CC2)cc1 | 11% |
| Cc1cc(Nc2cccc(C)c2C)n2ncnc2n1 | 7% |
| CCCCCCCCC1CO1 (stereo not drawn) | -4% |
| Cc1ccc(CCNC(=O)C2CCN(S(=O)(=O)N3CCCC3)CC2)cc1 | -3% |
| CCn1cc(C2=NC(c3ccccc3)CO2)c2ccccc21 (stereo not drawn) | -20% |
| CC(=O)N=c1sc2cc(C)ccc2n1C | -1% |
| COc1cc([C@H](O)CO)ccc1O | 6% |
| COc1cccc2c1[C@H](CO)N1[C@H](C#N)[C@@H]3C[C@H](C(=O)O)[C@@H]([C@@H]1C2)N3C | 0%[11.4 µM] |
| CCCN1Cc2cccc(C(=O)NCc3cccs3)c2C1=O | -5% |
| COCCN1CN=C(Nc2nc3ccccc3s2)NC1 | -6% |
| CCn1c(SCC(=O)c2ccccc2)nnc1-c1ccoc1C | -6% |
| CC1=C(C(N)=O)C(c2cccc(O)c2)n2nc(CCCO)nc2N1 (stereo not drawn) | 1% |
| COc1ccccc1C1N(c2ccc(F)cc2)C(=O)C2CCCN21 (stereo not drawn) | 13% |
| O=C(O)C1CCCN1c1ncccn1 (stereo not drawn) | 2% |
| NS(=O)(=O)c1ccc(NS(=O)(=O)/C=C/c2ccccc2)cc1 | 9% |
| CCCCC(=O)Nc1ccc2c(c1)nc1n2CCOC1 | 5% |
| Cc1cc(C)nc(SCc2nnc(SCC(=O)Nc3ccc(Cl)c(C(F)(F)F)c3)o2)n1 | -1% |
| CC(=O)c1cccc(NC(=O)CN(C2CCCCC2)S(C)(=O)=O)c1 | 9% |
| O=C(O)Cn1cc(C(=O)c2ccco2)c2ccccc21 | -30% |
| COc1ccc(CCNC(=O)c2cnn3ccccc23)c(OC)c1OC | ? |
| Cc1ccc(S(=O)(=O)N2CCN(c3ncnc4c3cnn4-c3ccccc3)CC2)cc1 | 8% |
| CCn1c(CNc2ccccc2Cl)nnc1SCCN1CCCCC1 | 6% |
| COc1ccccc1C1C(C(N)=O)=C(C)Nc2ncnn21 (stereo not drawn) | -16% |
| Cc1cccc2cc(C(c3nnnn3Cc3ccc4c(c3)OCO4)N3CCCC3)c(=O)[nH]c12 (stereo not drawn) | 9% |
| O=c1[nH]c2cc(Cl)ccc2c(O)c1-c1ccc(Oc2ccccc2)cc1 | -9% |
| COc1ccc(-c2cc(C(F)(F)F)nc(SCCC(=O)N3CCN4CCCC4C3)n2)cc1 (stereo not drawn) | -7% |
| CCC(C)CCCCC(=O)NC(CCN)C(=O)NC(C(=O)NC(CCN)C(=O)NC1CCNC(=O)C(C(C)O)NC(=O)C(CCN)NC(=O)C(CCN)NC(=O)C(CC(C)C)NC(=O)C(Cc2ccccc2)NC(=O)C(CCN)NC1=O)C(C)O (stereo not drawn) | -4% |
| O=C(CSc1nc2ccccc2c(=O)[nH]1)c1cccs1 | 0% |
| Cc1cccc(-n2nnc(C(=O)NCc3ccco3)c2N)c1 | -8% |
| COc1ccc2cc(C(c3nnnn3CCc3ccccc3)N3CCC(O)CC3)c(=O)[nH]c2c1 (stereo not drawn) | -10% |
| O=C(CS(=O)(=O)c1cn(Cc2cccc(F)c2)c2ccccc12)N1CCOCC1 | 6% |
| COc1cc(-c2nc(-c3ccncc3)no2)cc(OC)c1OC | -1% |
| CS(=O)(=O)N1CCC2(CCN(Cc3ccc(C#N)cc3)CC2)CC1 | 10% |
| C=CCN1C(=Nc2ccccc2)SC/C1=C\C(=O)OC | -14% |
| O=C(CSc1nnnn1-c1cccc2c1CCCC2)N1CCOCC1 | -1% |
| COc1ccccc1Nc1nc(N)nc(CN2CCN(Cc3ccccc3)CC2)n1 | 3% |
| O=C(Nc1ccccc1C(F)(F)F)c1cc(-c2ccc(O)cc2)on1 | -12% |
| COc1ccc(-n2c(C)nc3c(cnn3-c3ccc(Cl)cc3)c2=O)cc1 | -5% |
| CC(C)CCNC(=O)Cn1c(NCCC(C)C)nc2c1c(=O)n(C)c(=O)n2C | 2% |
| Cc1c(NC(=O)C2Cc3ccccc3CN2C(=O)c2ccco2)c(=O)n(-c2ccccc2)n1C (stereo not drawn) | 0% |
| CN(Cc1ccccc1)C(=O)CCCn1c(=O)[nH]c2cc(Cl)ccc2c1=O | -6% |
| Cc1ccc(O)c(CNc2ccccn2)c1 | -2% |
| Nc1nc(-c2ccc(Cl)cc2)cc(C(F)(F)F)n1 | ? |
| O=C(Nc1nnc(C2CC2)o1)c1ccc(S(=O)(=O)N2CCCc3ccccc32)cc1 | ? |
| C/C(CCN1CCCCc2nc(C)c(C)cc21)=N\O[C@@H](C)c1cn([C@@H]2COC[C@@H]2O)nn1 | 1%[11.4 µM] |
| CCCCC(=O)NCCc1ccc(S(N)(=O)=O)cc1 | ? |

Next compounds follow:
| Structure | HSD17B inh |
| --- | --- |
| COCC(=O)O | -2% |
| Cc1nn(CC(=O)NCCc2ccccc2)c(=O)c2ccccc12 | 4% |
| CCCCOC(=O)c1ccc(NC(=O)CSCc2n[nH]c(=O)[nH]2)cc1 | -4% |
| c1cn(-c2cc(-c3ccc4c(c3)OCO4)ncn2)cn1 | 25µM* |
| C/C(CC(O)(/C=N/O)c1ccccc1)=N\O (stereo not drawn) | -1% |
| CCOC(=O)C(C#N)c1ccccn1 (stereo not drawn) | -8% |
| COc1cc(C)c(N(C(C)=O)c2ccccc2)c(C)c1 | 9% |
| O=c1[nH][nH]c(=S)c(=O)[nH]1 | -27%[11.4 µM] |
| COc1ccc(-c2nnc3sc(CCN4C(=O)c5ccccc5C4=O)nn23)cc1 | -5% |
| O=S(=O)(Nc1ccc(Cl)cc1Cl)c1cc(Cl)ccc1Cl | -14% |

Screening data (PubChem BioAssay)
